RGS16-Gao HTS: regulators of human RGS16-Galphao interaction; O15492+P09471; bead-based flow cytometry RGS16-Galphao binding, fluorescence; actives lie on both sides; binding response (% of control), % at 10 µM; 0.38% of 220,000 active;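 active means below 25% or above 175%, edge rows of some plates excepted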;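 further: Galphao activated by GDP with aluminum fluoride before binding; 100% = wells without compound and 0% = beads without RGS; some results beyond the cut were filed as inactive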
Target sequence (O15492 whole entry, looked up): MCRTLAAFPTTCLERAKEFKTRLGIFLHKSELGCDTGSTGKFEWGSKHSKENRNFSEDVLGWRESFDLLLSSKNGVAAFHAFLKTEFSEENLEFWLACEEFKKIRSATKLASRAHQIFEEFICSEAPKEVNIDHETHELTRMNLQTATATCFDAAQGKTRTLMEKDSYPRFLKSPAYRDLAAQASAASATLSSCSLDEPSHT
Target sequence (P09471 whole entry, looked up): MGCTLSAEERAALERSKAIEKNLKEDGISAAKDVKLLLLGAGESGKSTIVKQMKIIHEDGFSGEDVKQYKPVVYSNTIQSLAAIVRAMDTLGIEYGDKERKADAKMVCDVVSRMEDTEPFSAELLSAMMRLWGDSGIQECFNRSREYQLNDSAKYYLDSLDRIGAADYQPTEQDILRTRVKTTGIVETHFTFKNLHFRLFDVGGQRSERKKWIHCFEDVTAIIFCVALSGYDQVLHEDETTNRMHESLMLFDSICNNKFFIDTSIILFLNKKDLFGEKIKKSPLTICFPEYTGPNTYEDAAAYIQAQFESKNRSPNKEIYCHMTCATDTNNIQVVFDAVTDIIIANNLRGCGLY
PKD1 kinase inh: PKD1 (human) kinase inhibition. inhibition, %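 (about 10 µM by stock and volumes)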. PKD1 kinase fluorescence polarization assay. 0.056% of 200,000 active. AID 797;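 active means inhibition of 50% or more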;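 further: controls were vehicle for no effect and a reference inhibitor for full effect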
HSV augment: increases HSV replication in cells; HSV replication augmentation in cells, fold increase; 0.005% of 220,000 active; maximum fold increase;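 active means peak rise of 1.5-fold or more in the series; inconclusive means self-fluorescent or not available for retest; tested in PC3 cells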;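 further: first round at 10 µM; read as green reporter fluorescence; hits show the peak of a series up to 25 µM; 1 = signal of infected wells without compound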
GALR2 ag: GALR2 (human) receptor agonism. activation, %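 (tested at 5 µM)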. GALR2-expressing cells, agonist activation read-out. AID 803. 0.48% of 140,000 active. O43603;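 active means above mean plus 3 SD of all compounds, about 5% in these data, not always enough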;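 further: 0% = vehicle buffer wells and 100% = reference agonist at full effect; tested in CHO reporter cells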
Target sequence (O43603 whole entry, looked up): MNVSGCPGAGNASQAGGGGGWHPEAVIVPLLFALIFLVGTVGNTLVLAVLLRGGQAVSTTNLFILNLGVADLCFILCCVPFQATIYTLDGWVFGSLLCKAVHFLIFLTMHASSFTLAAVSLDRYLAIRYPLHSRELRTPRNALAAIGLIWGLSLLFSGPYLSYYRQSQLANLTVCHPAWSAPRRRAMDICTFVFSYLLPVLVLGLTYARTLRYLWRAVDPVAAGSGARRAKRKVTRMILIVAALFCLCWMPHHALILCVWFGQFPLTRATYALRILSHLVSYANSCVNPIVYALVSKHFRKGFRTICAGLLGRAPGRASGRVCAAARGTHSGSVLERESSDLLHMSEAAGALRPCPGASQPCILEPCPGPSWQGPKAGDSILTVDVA
Insulin prom inh: TRM-6 insulin promoter activity inhibition | TRM-6 cells (human fetal islet line), insulin promoter-eGFP reporter, imaging; reporter expression induced with tamoxifen | inhibition, % at 2 µM | 0.9% of 130,000 active;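 active means inhibition above the mean plus 3 SD, with well images judged a real hit on visual review, cut at about 60% in these data, passing the limit was not always enough; inconclusive means inhibition over the cutoff but images rejected on review; inactive means inhibition not above the cutoff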
Insulin prom inh cell count: also measured in Insulin prom inh; calls as there; normalized cell count, %; measured here: cell count, toxicity; reference of the scale not given here;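 cells exposed to compound for 48 h; stained nuclei by imaging scaled within each plate; lower means fewer cells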
HSV augment primary fold: second read-out of HSV augment, no call of its own (marks repeat the call); fold increase; compound at 10 µM; measured here: primary screen fold increase 10 uM; tested in PC3 cells;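 GFP signal in the first replicate; 1 = infected wells without compound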
The depositor's hits bear a star; i = inactive; ? = inconclusive; / = not tested or not shown.

Under each structure: RGS16-Gao HTS	PKD1 kinase inh	HSV augment	HSV augment primary fold	GALR2 ag	Insulin prom inh	Insulin prom inh cell count
- O=C1c2ccccc2C(=O)N1CC(O)Cn1nnc2ccccc21 (stereo unspecified)
  96	-10	i	0.97	-0.5	36	99
- CCOC(=O)C1CCN(C(=O)Nc2c(-c3ccccc3)noc2C)CC1
  113	/	i	1	/	/	/
- O=C1c2ccccc2C(Nc2ccc(S(=O)(=O)N3CCCCC3)cc2)N1Cc1ccco1 (stereo unspecified)
  105	-14	i	1	-2.2	/	/
- COc1ccc(C(=O)O/N=C(/C)c2cccs2)cc1
  105	-2	i	0.88	-2.6	3	105
- O=c1cc(O)n(-c2ccccc2F)c(=S)[nH]1
  107	-1	/	/	-1.6	/	/
- Cc1ccc(C(=O)NCc2ccccc2)c(F)c1F
  103	-2	i	0.88	/	/	/
- COC(=O)c1ccccc1NC(=O)CSc1ccccc1
  102	-11	i	0.95	-0.8	/	/
- CC(C)(C)n1nnnc1C(c1cccs1)N1CCN(c2ccccc2)CC1 (stereo unspecified)
  99	-3	i	0.96	-1.0	-37	107
- O=C1Nc2ccc(F)cc2C12Nc1ccccc1-c1nnc(SCc3ccccc3Cl)nc1O2 (stereo unspecified)
  80	-21	i	1	-0.8	-16	85
- CC/C(=N\NC(=O)c1ccccc1Cl)c1ccc(Br)s1
  111	-3	i	0.81	-0.4	-39	74
- CC12CN3CC(C)(CN(C1)C3c1ccc(Cl)cc1Cl)C2O (stereo unspecified)
  /	2	i	0.89	-0.5	11	134
- N#Cc1c(N2CCCCC2)nc(N)c2c(N)nc3c(c12)CC(CCl)O3 (stereo unspecified)
  112	-4	i	0.92	/	7	168
- COc1ccc(NC(=O)c2ccco2)cc1S(=O)(=O)N1CCOCC1
  53	6	i	0.98	/	-100	46
- CCOc1ccc(NC(=O)CN(c2cc(C)cc(C)c2)S(=O)(=O)c2c(C)noc2C)cc1
  77	-6	i	0.85	-2.1	/	/
- COc1ccc(C(CC(=O)O)NC(=O)COc2ccccc2)cc1 (stereo unspecified)
  92	-2	i	0.99	-0.9	69	74
- CCc1nc(SCc2nc3ccccc3[nH]2)c2oc3ccccc3c2n1
  117	-1	i	0.82	-0.2	44	107
- CC(C)OC(=O)C(C)Nc1n[nH]c(=S)[nH]c1=O (stereo unspecified)
  102	5	i	1	/	/	/
- Cc1cc(C)n(-c2nc(O)cc(=O)[nH]2)n1
  111	-2	i	1	-1.1	65	130
- COc1cnc(-c2ccccn2)nc1Oc1ccccc1Cl
  104	-4	i	0.9	-0.8	/	/
- Cc1cc(C)c(C(=O)CSc2n[nH]c(-c3ccncc3)n2)c(C)c1
  117	0	i	1	/	/	/

More entries
Under each structure: RGS16-Gao HTS	PKD1 kinase inh	HSV augment	HSV augment primary fold	GALR2 ag	Insulin prom inh	Insulin prom inh cell count
- Nn1c(SCC(=O)Nc2cccc(F)c2)nnc1C1CCCCC1
  102	-3	i	1	-0.7	/	/
- O=C(OCC1CC(c2ccccc2Cl)=NO1)c1ccc(Br)cc1 (stereo unspecified)
  102	0	i	0.9	-0.4	/	/
- c1ccc2c(c1)CCCN2c1nc(N2CCOCC2)nc(N2CCOCC2)n1
  102	/	i	1.1	/	/	/
- CC(=O)Nc1c(C(=O)N2CCN(c3ncccn3)CC2)cnn1-c1ccccc1Cl
  /	0	/	/	-0.2	17	84
- CC1CN(C(=O)CSc2nnc(-c3ccncc3)n2-c2ccccc2)CC(C)O1 (stereo unspecified)
  103	-5	i	0.98	-1.9	/	/
- O=C(Nc1ccc(CN2CCOCC2)cc1)c1cccc(F)c1
  94	-4	i	0.95	-0.9	0	55
- CCOC(=O)Cc1nn(CC)c(=O)c2ccccc12
  99	-2	i	0.95	/	/	/
- CC(=O)N1CCc2cc(S(=O)(=O)NC3CCCc4ccccc43)ccc21 (stereo unspecified)
  103	-9	i	0.95	-1.0	38	111
- COc1ccc(C2=Nn3c([n+](C)c4ccccc43)SC2)cc1
  92	-6	i	0.93	/	/	/
- COc1cc2c(cc1OC)CN(C(=O)/C=C/c1cccs1)CC2
  105	/	i	0.82	/	/	/
- CC(=O)Nc1ccc(/C=N/NC(=O)c2cc(-c3ccco3)nc3ccccc23)cc1
  100	/	i	1.1	/	/	/
- COc1ccc(S(=O)(=O)N(C)CC(=O)NC2CCCCC2)cc1Cl
  100	6	i	0.77	-2.8	-3	80
- CCOc1ncccc1C(=O)Nc1ccc(-c2ccc3nnc(C)n3n2)cc1
  103	-5	i	0.94	/	25	149
- COc1cc(-c2nc3ccc(N4CCN(C)CC4)cc3[nH]2)cc(OC)c1OC
  101	5	i	0.92	/	40	88
- Cc1[nH]nc2c1C(c1cccs1)C1=C(CC(C)(C)CC1=O)N2 (stereo unspecified)
  102	4	i	0.83	/	35	138
- CS(=O)(=O)NNC(=O)c1csc(Cc2c(Cl)sc3ccc(Cl)cc23)n1
  113	/	i	1.1	/	/	/
- Cc1ccc(-c2cc(-c3cccs3)[nH]n2)c(O)c1
  130	-4	i	1.1	-2.2	30	87
- COc1cc2c(cc1OC)C(C(=O)NCCN1CCOCC1)C1c3ccccc3CCN1C2=O (stereo unspecified)
  99	-4	/	/	-1.8	-12	125
- O=c1cc(CN2CCCCCC2)nc2sccn12
  102	6	i	0.92	/	/	/
- O=C(O)/C=C/c1ccc(S(=O)(=O)N(CCO)CCO)cc1
  101	-1	i	0.94	/	/	/

Next section:
Under each structure: RGS16-Gao HTS	PKD1 kinase inh	HSV augment	HSV augment primary fold	GALR2 ag	Insulin prom inh	Insulin prom inh cell count
- CCOC(=O)c1c(C)[nH]c(C(=O)CN2C(=O)C(=O)N(CC(C)C)C2=O)c1C
  105	-4	i	0.97	/	0	30
- CCN(CC)CCCNC(=S)N1CCn2c(nc3ccccc32)C1
  102	-5	i	1.1	-0.2	/	/
- CC1CCCC(NC(=O)COC(=O)CN2C(=O)C3CCCCC3C2=O)C1C (stereo unspecified)
  107	-13	i	1	-1.1	/	/
- Cc1ccc2c(c1)C(=O)CC(O)(C(F)F)O2 (stereo unspecified)
  99	/	i	1	/	/	/
- CS(=O)(=O)c1ccc(Cl)c(NC(=O)Cc2c(Cl)cccc2Cl)c1
  92	5	i	1	/	/	/
- O=C(Nc1ccccc1C(=O)N/N=C/c1ccco1)c1ccccc1Cl
  105	-13	i	1.1	0.2	/	/
- O=C(c1ccccc1)N1CCN(C(=O)c2ccccc2Br)CC1
  105	5	i	0.85	-3.5	36	73
- CCCn1c(SCC(=O)NCc2ccc(OC)cc2)n[nH]c1=O
  116	11	i	0.93	/	-43	57
- CC1=NN(C(C#N)c2ccc(F)cc2)C(C)(C)C1 (stereo unspecified)
  45	-6	i	1.1	/	/	/
- COC(=O)c1ccc(C23CC4(C2)[C@H](CN(CC2CCCCC2)[C@@H]4c2ccccc2)C3c2ccc(C(F)(F)F)cc2)cc1 (stereo partly specified)
  99	/	i	0.89	/	/	/
- S=c1[nH]cnc2scc(-c3ccccc3)c12
  128	-5	i	0.96	0.0	3	49
- COc1ccccc1OCCCC(=O)Nc1nccs1
  98	1	i	1	/	/	/
- Cc1ccc(S(=O)(=O)c2cc(C#N)c(=O)[nH]c2N)cc1
  96	12	i	0.95	-2.3	28	136
- O=C(Nc1ccc(Cl)cn1)c1ccccc1F
  108	-2	i	0.85	-1.6	-54	93
- CC(C)CCNC(=O)c1ccc(Cl)c(N)c1
  92	-4	i	1	/	/	/
- Cc1ccc(S(=O)(=O)N=Nc2c(O)[nH]c3ccccc23)cc1
  104	-3	i	1.1	-0.1	-14	103
- Cc1ccc(NC(=S)NCc2ccccc2Cl)c(C)c1
  109	-11	i	0.97	-1.7	-30	99
- CSCCC(Nc1ccc(S(=O)(=O)N2CCOCC2)cc1[N+](=O)[O-])C(=O)OCC(=O)N(C(C)C)C(C)C (stereo unspecified)
  98	-1	i	1.2	-2.4	25	106
- CC(/C=C/c1ccc(N(C)C)cc1)=N\N=C1\NC(=O)CC(C(=O)Nc2ccccc2)S1 (stereo unspecified)
  107	-10	i	1	-0.7	-18	71
- O=C(COC(=O)Cc1ccc(S(=O)(=O)N2CCOCC2)s1)NCCc1ccccc1
  -65	-4	i	0.89	-1.6	10	68

Going on with the list.
Under each structure: RGS16-Gao HTS	PKD1 kinase inh	HSV augment	HSV augment primary fold	GALR2 ag	Insulin prom inh	Insulin prom inh cell count
- CC1(C)Cc2c(sc3c2c(=N)n(Cc2ccco2)c(=O)n3Cc2ccc(Cl)cc2)CO1
  102	-5	i	0.85	1.1	/	/
- O=C(Nc1ccc(O)cc1)c1ccc(C(=O)c2ccccc2)o1
  97	-7	?	/	-2.0	-30	14
- O=C(/C=C/c1ccccc1)NNC(=O)c1cccc(Cl)c1
  104	4	i	1.1	-2.0	59	85
- CCN(CC)S(=O)(=O)c1cccc(-c2nnc(SCC(N)=O)n2CCc2ccccc2)c1
  103	-5	i	0.76	0.6	57	84
- C=CCN1C2CCCC1CC(NC(=S)Nc1cccc(OC)c1)C2 (stereo unspecified)
  105	2	i	0.92	/	/	/
- Cc1ccc(S(=O)(=O)CC(=O)N2CCCC2)cc1
  101	-5	i	0.92	-1.7	16	138
- CCOc1ccc(NC(=NCc2ccc3c(c2)OCO3)SC2CC(=O)N(c3ccc(OCC)cc3)C2=O)cc1 (stereo unspecified)
  109	-6	i	1	-2.6	-450	55
- N#CCCN(Cc1ccccc1)C(=O)Nc1ccccc1
  103	/	i	0.92	/	/	/
- CCCCC(=O)Nc1cc(-c2nc3ncccc3o2)ccc1C
  102	-2	i	0.94	/	/	/
- C/C(=N\NC(=O)c1ccncc1)c1cc2ccccc2o1
  102	7	i	0.81	/	/	/
- Cc1cccc(NC(=O)N2CCCC2C(=O)NCc2cccs2)c1 (stereo unspecified)
  102	-9	i	0.97	-1.1	-41	89
- COC(=O)CN(C(=S)Nc1ccc(Cl)cc1)C1CC(=O)N(c2ccc(OC)cc2)C1=O (stereo unspecified)
  99	3	i	1.1	-3.5	-60	138
- Cc1cc(NC(=O)CCC(=O)N(CCC(C)C)C(C(=O)NC2CCCC2)c2cccnc2)no1 (stereo unspecified)
  55	-4	i	0.47	-0.6	/	/
- COc1ccc(NS(=O)(=O)c2cc(OC)ccc2NC(=O)c2cc(C)oc2C)cc1
  98	-2	i	0.66	-2.0	-24	48
- O=C(Nc1ccc(Cc2ccncc2)cc1)C1CCC(N2C(=O)C3CCCCC3C2=O)CC1 (stereo unspecified)
  78	-6	i	0.93	/	35	66
- COc1ccc(CCNC(=O)CSc2ccc(-c3ccco3)nn2)cc1OC
  97	-1	i	0.97	/	-25	72
- COc1ccc(/C=N/N2C(=O)C3C4C=CC(C4)C3C2=O)cc1[N+](=O)[O-] (stereo unspecified)
  106	3	i	0.99	/	/	/
- COc1ccccc1-c1c(C(F)(F)F)oc2cc(OCC(=O)Nc3ccccc3C(F)(F)F)ccc2c1=O
  112	-13	i	0.86	-1.3	/	/
- CC1=NN(c2ccccc2)C(=O)C1N=Nc1ccc(S(N)(=O)=O)cc1 (stereo unspecified)
  104	/	i	0.88	/	/	/
- Cc1ccc(-c2nnn(CC(=O)N3CCN(c4ccccc4)CC3)n2)o1
  45	-9	i	1	-2.1	23	81

Of the compounds above, these contain a CF3 group.
Under each structure: RGS16-Gao HTS	PKD1 kinase inh	HSV augment	HSV augment primary fold	GALR2 ag	Insulin prom inh	Insulin prom inh cell count
- COC(=O)c1ccc(C23CC4(C2)[C@H](CN(CC2CCCCC2)[C@@H]4c2ccccc2)C3c2ccc(C(F)(F)F)cc2)cc1 (stereo partly specified)
  99	/	i	0.89	/	/	/
- COc1ccccc1-c1c(C(F)(F)F)oc2cc(OCC(=O)Nc3ccccc3C(F)(F)F)ccc2c1=O
  112	-13	i	0.86	-1.3	/	/

Assay outcomes as filed in PubChem BioAssay.
